Rce1 inhib: yeast Rce1p protease inhibitors, primary screen, biochemical, fluorescence, cell-free homogeneous | CAAX prenyl protease 2 (Saccharomyces cerevisiae (strain ATCC 204508 / S288c)), Q03530 | yeast membranes, quenched prenylated peptide cleavage fluorescence | calls only | hit rate 0.27% among 290,000 | AID 2563, 2010;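 active = fall in fluorescence gain of 50% or more versus controls, with final raw signal at or below 3038400; inconclusive = same 50% fall but final raw signal above 3038400; inactive = fall in fluorescence gain under 50%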;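 note: plate controls were neutral control wells for no effect and wells lacking membranes for full effect; tested at 10 µM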
PABP FP inh: PABP poly(A) RNA binding inhibitors, primary screen, biochemical, fluorescence polarization, uHTS. AID 2014, 2009. Polyadenylate-binding protein 1 (Homo sapiens), P11940. inhibition, % at 35 µM. hit rate 1% among 290,000;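 active = 50% or more with normal probe brightness, or confirmed in later tests; inconclusive = above 50% with abnormal brightness, or retests that disagree; inactive = below 50% or failed in later tests; about a fifth of its hits are not listed in these tables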;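 note: calls also rest on retests at 20 µM and on dose response follow-up; controls were probe without protein and protein plus probe with vehicle; some compounds called inactive have numbers as strong as hits; many hits fall short of the cut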
Target sequence (P11940 whole entry, looked up): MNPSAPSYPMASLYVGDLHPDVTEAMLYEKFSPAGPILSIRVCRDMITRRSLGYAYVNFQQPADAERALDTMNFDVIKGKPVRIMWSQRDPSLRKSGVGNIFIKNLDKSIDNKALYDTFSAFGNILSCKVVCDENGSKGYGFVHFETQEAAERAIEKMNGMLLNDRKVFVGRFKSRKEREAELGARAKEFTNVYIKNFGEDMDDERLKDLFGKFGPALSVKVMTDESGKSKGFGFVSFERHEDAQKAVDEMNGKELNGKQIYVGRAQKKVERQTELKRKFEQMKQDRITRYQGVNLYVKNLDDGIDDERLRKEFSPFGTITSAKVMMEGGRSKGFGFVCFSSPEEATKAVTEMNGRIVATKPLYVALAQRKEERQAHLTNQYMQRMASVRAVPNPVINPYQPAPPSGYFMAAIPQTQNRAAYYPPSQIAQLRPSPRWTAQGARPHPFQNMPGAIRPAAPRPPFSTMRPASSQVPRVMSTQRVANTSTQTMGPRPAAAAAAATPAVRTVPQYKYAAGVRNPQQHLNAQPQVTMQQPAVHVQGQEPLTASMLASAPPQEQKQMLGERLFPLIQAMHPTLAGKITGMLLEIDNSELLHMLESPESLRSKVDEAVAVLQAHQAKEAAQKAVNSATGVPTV
CSC inhib: cancer stem cell viability inhibitors, primary screen, luminescence; cancer stem cell-like cells viability; inhibition, % at 7.5 µM; hit rate 1.1% among 300,000; AID 2717, 2010;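 active = mean at 75% or more and at least half the replicates too; inconclusive = mean and replicates disagree; tested in HMLE shEcad cells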;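 note: 0% = median of negative and 100% = median of positive control wells; the first replicate is given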
eIF4H inh: human eIF4H binding inhibitors, primary screen, translation initiation inhibitor project, biochemical, uHTS, fluorescence polarization | hit rate 0.94% among 290,000 | eIF4H fluorescence polarization binding assay | inhibition, % at 35 µM | Eukaryotic translation initiation factor 4H (Homo sapiens), Q15056;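 active = 50% or more with normal probe brightness, or confirmed in later tests; inconclusive = above 50% with abnormal brightness, or retests that disagree; inactive = below 50% or failed in later tests; about a fifth of its hits are not listed in these tables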;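 note: calls also rest on retests at 20 µM and on dose response follow-up; 0% = protein and probe with vehicle and 100% = probe without protein; strong numbers were not always called active; many hits fall short of the cut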
eIF4H inh retest: further read-out of eIF4H inh, marked with its call; inhibition, %; compound at 20 µM; confirmation average;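 mean of two retest wells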
PABP FP inh retest: second read-out of PABP FP inh, no call of its own (marks repeat the call); inhibition, %; compound at 20 µM; confirmation repeats;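 mean of two retest wells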
* marks the source's active call; other numbers are inactive results; i = inactive; u = inconclusive; x = no result given.

SMILES | Rce1 inhib | PABP FP inh | CSC inhib | eIF4H inh | others
O=C(CN1CCCN(S(=O)(=O)c2ccc(Br)cc2)CC1)Nc1ccc2cn[nH]c2c1 | i | x | x | x
CC1(C)CC[C@@]2(C(=O)O)C(C1)C1=CCC3[C@@]4(C)CC[C@H](O)C(C)(C)C4CC[C@@]3(C)[C@]1(C)C[C@H]2O (stereo not given in full) | x | x | 88* | x
CC1(C)C(=O)CC[C@@]2(C)[C@H]1CC[C@@]1(C)CC3=C(CC[C@@H]12)[C@@]1(C)CCC(=O)C(C)(C)[C@@H]1CC3 | x | x | 53 | x
C#CCOCCOCCOCCNc1nc(N2CCN(C(=O)CCCCCCCCCCNC(=O)[C@H](CCCCN)n3cc(C)nn3)CC2)nc(N2CCN(C(=O)CCCCCCCCCCNC(=O)[C@H](CCCN=C(N)N)n3cc(C[C@@H](C)CC)nn3)CC2)n1 | x | x | 168* | x
O=C(NCC#CCSc1nnc(-c2cccc3ccccc23)o1)c1cccs1 | x | x | 44 | x
CC(=O)OC[C@]12CC[C@H]3[C@@](C)(CC[C@H]4C(C)(C)CCC[C@]34C)[C@@H]1C[C@@H](C1=CC(=O)O[C@@H]1OC(C)=O)O2 | x | x | 125* | x
CC(C)[C@]1(c2ccccc2)ON(c2ccccc2C(F)(F)F)C1=O | x | x | -20 | x
CC[N+](C)(CC)CCC[n+]1c(-c2ccccc2)c2cc(N)ccc2c2ccc(N)cc21 | x | x | 9 | x
Oc1cccc(O)c1O | x | x | 1 | x
CCOc1ccccc1C(=O)Nc1ccc2nc(N3CCN(c4ncccn4)CC3)cc(C)c2c1 | x | x | -2 | x
COc1cc2c(cc1OC)C(Cc1ccc(O)c(Oc3ccc(C[C@H]4c5cc(OC)c(OC)cc5CCN4C)cc3)c1)N(C)CC2 (stereo not given in full) | x | x | 17 | x
C=C1[C@@H](O)[C@@H]2O[C@]3(CC[C@H](/C=C/[C@@H](C)[C@@H]4CC(C)=CC5(O[C@H](C[C@@](C)(O)C(=O)OC)CC[C@H]5O)O4)O3)CC[C@H]2O[C@@H]1[C@@H](O)C[C@H](C)[C@H]1OC2(CCCCO2)CC[C@H]1C (stereo not given in full) | x | x | 77* | x
Cc1nc(NC2=NCN(Cc3ccccc3)CN2)nc2ccccc12 | x | 0 | x | 5
O=C(NC1CC2CCCC(C1)N2C1CC1)NC12CC3CC(CC(C3)C1)C2 (stereo not given) | x | -4 | x | 2
CN(C)c1ccc(C2CC(c3ccccc3)=Nc3nc(-c4ccccc4)cn32)cc1 (stereo not given) | x | -3 | x | -9
c1ccc2[nH]c(SN3CCOCC3)nc2c1 | x | 1 | x | 7
COc1cccc(C2C(C(=O)c3cccs3)=C(O)C(=O)N2CCCn2ccnc2)c1OC (stereo not given) | x | 2 | x | 1
COc1ccc(NC(=O)/C(Cl)=C(/Cl)S(=O)Cc2ccccc2Cl)cn1 (stereo not given) | x | 8 | x | 18
COCCCn1c(=NC(=O)c2ccc3c(c2)OCO3)c(C#N)cc2c(=O)n3cccc(C)c3nc21 | x | 1 | x | 9
Nc1nnc(-c2cc3c(ccc4ccccc43)oc2=O)s1 | x | -1 | x | 86* | eIF4H inh retest=76*;PABP FP inh retest=37

Quoted at random: 6 entries already listed.
SMILES | Rce1 inhib | PABP FP inh | CSC inhib | eIF4H inh | others
C#CCOCCOCCOCCNc1nc(N2CCN(C(=O)CCCCCCCCCCNC(=O)[C@H](CCCCN)n3cc(C)nn3)CC2)nc(N2CCN(C(=O)CCCCCCCCCCNC(=O)[C@H](CCCN=C(N)N)n3cc(C[C@@H](C)CC)nn3)CC2)n1 | x | x | 168* | x
CC1(C)C(=O)CC[C@@]2(C)[C@H]1CC[C@@]1(C)CC3=C(CC[C@@H]12)[C@@]1(C)CCC(=O)C(C)(C)[C@@H]1CC3 | x | x | 53 | x
c1ccc2[nH]c(SN3CCOCC3)nc2c1 | x | 1 | x | 7
CCOc1ccccc1C(=O)Nc1ccc2nc(N3CCN(c4ncccn4)CC3)cc(C)c2c1 | x | x | -2 | x
Nc1nnc(-c2cc3c(ccc4ccccc43)oc2=O)s1 | x | -1 | x | 86* | eIF4H inh retest=76*;PABP FP inh retest=37
COc1cccc(C2C(C(=O)c3cccs3)=C(O)C(=O)N2CCCn2ccnc2)c1OC (stereo not given) | x | 2 | x | 1

Returning to the listing, repeating the 4 entries before the break.
SMILES | Rce1 inhib | PABP FP inh | CSC inhib | eIF4H inh | others
COc1cccc(C2C(C(=O)c3cccs3)=C(O)C(=O)N2CCCn2ccnc2)c1OC (stereo not given) | x | 2 | x | 1
COc1ccc(NC(=O)/C(Cl)=C(/Cl)S(=O)Cc2ccccc2Cl)cn1 (stereo not given) | x | 8 | x | 18
COCCCn1c(=NC(=O)c2ccc3c(c2)OCO3)c(C#N)cc2c(=O)n3cccc(C)c3nc21 | x | 1 | x | 9
Nc1nnc(-c2cc3c(ccc4ccccc43)oc2=O)s1 | x | -1 | x | 86* | eIF4H inh retest=76*;PABP FP inh retest=37
O=c1c2cc(N3CCOCC3)ccc2[nH]c(=S)n1CCCN1CCN(c2ccccc2F)CC1 | x | -5 | x | -3
CCOC(=O)c1c(C)[nH]c(C(=O)COC(=O)c2cn(CC)c3nc(C)ccc3c2=O)c1C | x | -4 | x | -4
Cn1c(=O)c2c(SCc3ccccc3)nc(-c3ccco3)nc2n(C)c1=O | x | 4 | x | -7
Cc1ccc2nc(Nc3nc(=O)c4ccccc4n3C)nc(C)c2c1 | x | 28 | x | 9
Cc1cccc2cc(C(c3nnnn3CC3CCCO3)N3CCCC4(CCCCC4)C3)c(=O)[nH]c12 (stereo not given) | x | -2 | x | -4
CC(C)Cn1cnc2c(c1=O)c1nc3ccccc3nc1n2Cc1ccc2c(c1)OCO2 | x | 7 | x | 3
C[C@@H](c1ncncc1F)[C@](O)(Cn1cncn1)c1ccc(F)cc1F | x | -7 | x | -7
Cc1cc(C)nc(-n2nc(C)cc2NC(=O)c2cccc(S(=O)(=O)N3CCCCC3)c2)n1 | x | -3 | x | -1
Cc1ccc2cc(C#N)c(SCC(=O)NCC3CCCO3)nc2c1C (stereo not given) | x | 0 | x | 6
C#CCOCCOCCOCCNc1nc(N2CCN(C(=O)[C@H](CCCCN)n3cc(C(N)COC(=O)C(F)(F)F)nn3)CC2)nc(N2CCN(C(=O)[C@H](CCCCN)n3cc(C(N)CC(C)C)nn3)CC2)n1 (stereo not given in full) | x | 27 | x | 40
CSc1nc(N2CCN(CCO)CC2)c2sc3nc(-c4ccco4)c4c(c3c2n1)CCC4 | x | 38* | x | 98* | eIF4H inh retest=105*;PABP FP inh retest=83*
CCCCc1nc2ccccc2c(=O)n1NC(=O)c1c(O)c2cccc3c2n(c1=O)CCC3 | x | 15 | x | -3
COc1ccc(-c2noc(-c3cc(Cl)ccc3Cl)n2)cc1OC | x | 8 | x | 1
COc1cc(C(=O)NC2CCCNC2)cc(OC)c1OC (stereo not given) | x | 7 | x | 1
O=C(c1cc2cc(Br)cc(Br)c2oc1=O)N1CCCc2ccccc21 | x | 5 | x | 9
COc1nc2ccccc2cc1-c1noc(-c2cccnc2)n1 | x | -6 | x | 4
COCCN1C(=O)C(=O)/C(=C(/O)c2ccc(S(=O)(=O)N3CCOCC3)cc2)C1c1ccc(C(C)C)cc1 (stereo not given) | x | 9 | x | -8
c1ccc(-n2ncc3c(N4CCN(c5ccccn5)CC4)nc(N4CCOCC4)nc32)cc1 | x | -9 | x | -16
O=c1c(O)c(-c2ccc(O)cc2O)oc2cc(O)cc(O)c12 | x | -4 | x | 97 | eIF4H inh retest=-1;PABP FP inh retest=0
CCCCCCn1c(=O)c(-c2nc3ccccc3c(=O)[nH]2)c(O)c2ccccc21 | x | -3 | x | 1
Clc1cccc(-c2cc3nc4c(c(N5CCNCC5)n3n2)CCCC4)c1 | x | -15 | x | -1
COc1ccc2c(c1)O[C@@H](c1ccc3c(c1)OCO3)[C@H](OC(=O)Nc1cc(OC)c(OC)c(OC)c1)C2=O | x | 17 | x | -12
CCOC(=O)c1c(NC(=O)/C=C/c2ccc3c(c2)OCO3)sc(C)c1C | x | -7 | x | 4
Clc1ccc(-c2c[n+](Cc3ccc(Cl)c(Cl)c3)c3n2CCC3)cc1 | x | -2 | x | -2
Cc1nc(NC2=NCN(Cc3cccnc3)CN2)nc2c(C)cccc12 | x | -10 | x | -4
O=C(Nc1ccc(F)c([N+](=O)[O-])c1)c1ccc2c(c1)C(=O)OC2=O | x | 5 | x | 24
CCOc1ccccc1NC(=O)c1c(NC(=O)CNCc2ccco2)sc2c1CCC2 | x | 10 | x | 7
Cc1ccc2nc3c(cc(C#N)c(=O)n3CCN3CCOCC3)c(=O)n2c1 | x | 56 | x | 28 | eIF4H inh retest=46;PABP FP inh retest=49
Cc1ccnc(SCCn2c(N3CCN(C)CC3)nc3c2c(=O)[nH]c(=O)n3C)n1 | x | -10 | x | -1
COc1ccc(CNc2nc3c(c(C(F)(F)F)n2)CCCCC3)cc1 | x | -5 | x | -4
Clc1cccc(-c2nnc3sc(-c4ccc5c(c4)OCO5)nn23)c1 | x | 6 | x | 1
Oc1ccccc1-c1cc(C(F)(F)F)[nH]n1 | x | -9 | x | -5
CC1C(=O)CC(c2ccco2)NC1c1ccco1 (stereo not given) | x | 10 | x | 1
C[n+]1nc(Nc2cccc3ccccc23)sc1-c1ccc(C(=O)O)cc1 | x | 10 | x | -6
O=C1CCCCCN1CP(=O)(O)CN1CCOCC1 | x | -3 | x | 7
O=S(=O)(O)C1CCNCC1 | x | 1 | x | -9
CN(C)CCCNc1c2c(c(C#N)c3nc4ccccc4n13)CCC2 | x | u | x | u
Cn1c(=O)c2c(nc(N3CCN(Cc4ccccc4)CC3)n2CCSc2ncccn2)n(C)c1=O | x | -3 | x | 0
O=c1c2c3c(sc2n2cnnc2n1C1CCCCC1)CCC3 | x | 1 | x | 2
CCOC(=O)c1ccc2c(c1)nc(COc1ccccc1C#N)n2CC | x | -10 | x | -4
O=C(CSc1ccc2nnc(-c3ccncc3)n2n1)N1CCc2ccccc21 | x | -9 | x | -3
CCCn1c(C)cc(C(=O)CSc2nnc3n(CCC)c(=O)c4ccccc4n23)c1C | x | 4 | x | -2
COc1ccc(OC)c(N/C(=N\c2nc(C)cc(C)n2)NC(=O)c2ccco2)c1 | x | -7 | x | 2
COC(=O)c1cc2c([nH]c3ccccc32)c(C)n1 | x | 8 | x | 2
O=C(O)CNS(=O)(=O)c1ccc(-c2ccccc2)cc1 | x | 7 | x | 5
O=C(OCCN1C(=O)c2cccc3c(N4CCOCC4)ccc(c23)C1=O)c1cc(Cl)cc(Cl)c1 | x | -11 | x | u
CCc1c(C)nc(N)n2c(SCC(=O)N3CCN(c4ccccc4F)CC3)nnc12 | x | 4 | x | -2
COc1ccc(N2C(=O)N(Cc3ccccc3F)c3ccccc3S2(=O)=O)cc1 | x | -5 | x | -1
COc1ccc2c(c1OC)C(=O)c1ccccc1C2=O | x | 7 | x | 12
CCN(CC)C(=O)CC(c1ccc(F)cc1)c1ccc(OC(C)C)cc1 (stereo not given) | x | -11 | x | -1
Cc1nc(NC2=NCN(C3CCCCC3C)CN2)nc2ccccc12 (stereo not given) | x | 1 | x | -1
Cc1oc(-c2ccccc2Cl)cc1-c1nn2c(-c3ccco3)nnc2s1 | x | 26 | x | 26
Cc1ccc(S(=O)(=O)c2cc3c(=O)n4cc(C)ccc4nc3n(CC3CCCO3)c2=N)cc1 (stereo not given) | x | -4 | x | -8
CCOC(=O)c1cnn(-c2nc(C)nc3sc4c(c23)CCC4)c1N | x | -9 | x | 0
Cn1cnnc1SCC(=O)N1c2ccccc2-c2c(ssc2=S)C1(C)C | x | 8 | x | -2
Cc1nc2c(c(=O)n1Cc1ccco1)c1nc3ccccc3nc1n2Cc1ccccc1 | x | 57* | x | 69*
O=Nc1ccc(NOC(=O)c2ccc(Br)cc2)cc1 | x | -6 | x | -7
COc1cc(/C=N/NC(N)=O)ccc1OC(=O)c1ccc(C)cc1 | x | -4 | x | -6
COC(=O)c1ccc(CSc2ccc3nnc(-c4cccnc4)n3n2)o1 | x | 5 | x | -1
CCCCCCN(C(=O)CCCCCN1C(=O)NC(c2ccc(-c3ccccc3)cc2)C(C(=O)OCc2ccccc2)=C1C)C(C(=O)NCCCC)c1ccc(O)cc1 (stereo not given) | x | 6 | x | -10
COc1cccc(C(=O)N2CCN(C3CCN(Cc4ccccc4)CC3)CC2)c1 | x | 29 | x | 20
CCN(CC)CCCN1C(=O)C(=O)/C(=C(/O)c2ccc3c(c2)CC(C)O3)C1c1ccncc1 (stereo not given) | x | 8 | x | -7

High-throughput results deposited in PubChem by several laboratories.

Some of the compounds tested; the hit share may differ from the screen's.
